High-throughput results: PubChem, several laboratories
T cruzi repl: T. cruzi replication inhibition. T. cruzi beta-gal in NIH3T3, luminescence, 90 h. inhibition, % (concentration not given with the values). 1.4% of 300,000 active;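 active means mean inhibition across valid replicates above about 55%, limit read from the data; inconclusive means mean below that limit but half or more replicates reach it; inactive means mean below it, under half of replicates reach it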;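 further: signal also drops with host cell toxicity which is not excluded here; 0% = plate median of DMSO wells and 100% = zero luminescence signal; higher percent means less beta-gal luminescence so fewer parasites; stock transfer was 50 nL into about 50 µL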
UCH37 inh: inhibitors of human deubiquitinating enzyme UCH37; AID 588478; purified proteasome/UCH37, Ub-AMC cleavage fluorescence; 0.33% of 330,000 active; inhibition, % (concentration not given with the values);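 active means mean of two replicates above 20%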;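 further: 0% = compound-free wells with enzyme and 100% = wells lacking proteasome; stock transfer was 100 nL into about 20 µL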
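assay system = human UCH37 enzyme supplied as purified proteasome complex | amount = proteasome at 0.15 nM in the dispensed enzyme solution | schedule = 30 min compound-proteasome preincubation then 25 min substrate reaction, room temperature | measured by = fluorescence, ex 355 nm, em 460 nm | benchmarks = no-proteasome wells (full inhibition) and compound-free wells (no inhibition)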
Bfl-1 A1 inh: inhibitors of the anti-apoptotic protein A1, read as caspase activation; MEF A1-2A-BIM cells, Caspase-Glo 3/7 luminescence, 3 h; percent of clofoctol response, vehicle zero; caspase activation, % (test concentration not listed); 0.066% of 330,000 active; AID 2462;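 active means over half of replicate activation scores above 10%, or exactly half above 10 with the replicate mean above 10; inconclusive means replicate mean below 10 yet half the replicates above 10; inactive means over half of replicates below 10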;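 further: wells of about 30 µL received 50 nL stock; many hits fall short of the cut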
LANA-H2A inh: blocks KSHV LANA binding to histone H2A/H2B. Q9QR71. cell-free LANA-H2A/H2B peptide, fluorescence polarization. inhibition, % (no concentration beside the values). 0.6% of 320,000 active. AID 2629; in the data active means inhibition mostly above about 10%, no sharp cut-off; inactive means mostly below about 6.7%;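 further: stock transfer was 7.5 nL into about 10 µL; 0% = median of vehicle wells and 100% = median of positive control wells; one replicate is shown; the record names a cut of 25% in any replicate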
Target sequence (Q9QR71 whole entry, looked up): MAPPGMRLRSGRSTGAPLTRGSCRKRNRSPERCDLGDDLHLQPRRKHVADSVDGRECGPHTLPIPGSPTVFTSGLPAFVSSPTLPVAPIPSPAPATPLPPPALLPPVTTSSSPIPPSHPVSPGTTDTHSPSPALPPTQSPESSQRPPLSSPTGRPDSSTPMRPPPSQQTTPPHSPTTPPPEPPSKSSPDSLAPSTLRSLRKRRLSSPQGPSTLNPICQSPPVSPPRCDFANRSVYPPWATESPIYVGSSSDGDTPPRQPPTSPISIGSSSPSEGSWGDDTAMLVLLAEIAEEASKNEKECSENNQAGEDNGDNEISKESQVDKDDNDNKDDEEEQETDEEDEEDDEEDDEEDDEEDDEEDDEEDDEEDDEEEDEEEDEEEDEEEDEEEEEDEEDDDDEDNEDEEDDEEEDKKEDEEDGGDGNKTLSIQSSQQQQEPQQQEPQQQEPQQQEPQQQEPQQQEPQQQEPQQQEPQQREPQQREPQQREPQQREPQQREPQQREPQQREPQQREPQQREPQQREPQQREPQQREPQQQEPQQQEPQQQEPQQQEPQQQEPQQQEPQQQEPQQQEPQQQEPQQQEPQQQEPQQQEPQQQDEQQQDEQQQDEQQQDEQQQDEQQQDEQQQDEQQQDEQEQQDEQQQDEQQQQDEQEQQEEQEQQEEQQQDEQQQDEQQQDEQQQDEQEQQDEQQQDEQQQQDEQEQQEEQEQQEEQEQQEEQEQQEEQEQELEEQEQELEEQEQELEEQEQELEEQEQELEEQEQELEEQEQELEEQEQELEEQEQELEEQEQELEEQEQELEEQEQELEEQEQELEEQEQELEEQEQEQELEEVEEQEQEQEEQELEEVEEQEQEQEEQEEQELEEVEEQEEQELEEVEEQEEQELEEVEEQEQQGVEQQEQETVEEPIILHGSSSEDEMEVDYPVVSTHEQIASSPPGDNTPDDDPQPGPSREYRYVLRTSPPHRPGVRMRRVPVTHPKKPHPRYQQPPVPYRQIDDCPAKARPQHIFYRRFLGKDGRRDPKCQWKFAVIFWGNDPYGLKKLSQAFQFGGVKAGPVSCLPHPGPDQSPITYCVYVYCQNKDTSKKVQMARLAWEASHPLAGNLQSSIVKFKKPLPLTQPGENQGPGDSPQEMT
Beta2AR agonist: activates human beta-2 adrenergic receptor causing internalization. P07550. Am2.2-beta2AR cells, FAP receptor internalization, flow cytometry; reference of the scale not given here. response, % (test concentration not listed). 0.43% of 340,000 active;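 active means response above a set limit, near 3 SD of response in nonfluorescent compounds, cut at about 42% in these data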;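 further: stock transfer was 100 nL into about 11 µL; a reference agonist was the positive control; negative values mostly stem from fluorescent compounds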
Calb FLC: affects C. albicans growth with fluconazole. C. albicans CaCi-2 (fluconazole-resistant clinical isolate) + fluconazole, Alamar Blue growth, 48 h. growth inhibition, % (concentration not given with the values). 0.57% of 300,000 active. AID 1979;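 active means most replicates above 75%; inconclusive means exactly half above 75%; inactive means most below 75%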;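 further: all wells also contain fluconazole at 8 µg/ml as a sub-toxic cotreatment; 0% = median of DMSO wells and 100% = median of geldanamycin control wells; wells of about 8 µL received 7.5 nL stock; the first replicate is given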
RanGTP-Imp inh: disruptors of Ran-importin-beta complex formation – biochemical, FRET, CFP-Ran, YFP-importin-beta, homogeneous, primary screen | cell-free CFP-Ran/YFP-importin-beta FRET ratio | inhibition, % (concentration not given with the values) | 1.1% of 300,000 active;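 active means most replicates above 15%; inconclusive means exactly half above 15%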;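 further: 0% = DMSO wells and 100% = Ran loaded with GDP instead of GTP; wells of about 40 µL received 100 nL stock; the first replicate is given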
Beta apoptosis: blocks beta cell apoptosis; protection from apoptosis, % (test concentration not listed); 0.8% of 300,000 active; INS-1E cytokine-induced death, ATP luminescence, 48 h; percent of positive-control rescue, neutral wells zero; AID 435005;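 active means all replicates at 75% or more, or half of them and the mean; inconclusive means half reach 75% but not the mean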;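 further: 0% = cytokine-treated negative control wells and 100% = positive control rescue; higher means more ATP so stronger rescue from cytokine killing; wells of about 40 µL received 100 nL stock; the first replicate is given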
* = called active by the depositor; ? = inconclusive; nt = not tested or not shown.

mol	T cruzi repl	UCH37 inh	Bfl-1 A1 inh	LANA-H2A inh	Beta2AR agonist	Calb FLC	RanGTP-Imp inh	Beta apoptosis
COc1cccc(C(C(=O)NC2CCCCC2)N(C(=O)c2ccccn2)c2cccnc2)c1 (stereo unspecified)	-14.1	-0.2	0.2	4.9	1.0	-15.9	-1.2	-5.4
COc1ccccc1-c1noc(-c2ccccc2C(=O)NCc2ccco2)n1	-3.6	5.1	-0.5	2.1	-5.2	-26.5	3.9	-3.4
CCOc1ccc(S(=O)(=O)NCCC(=O)OCC(=O)NC(=O)c2cccn2C)cc1	nt	-0.3	-0.2	-4.4	5.8	nt	nt	-5.1
CCn1c(/C=C2/C(=O)N(C)c3ccccc32)nc2ccccc2c1=O	-1.9	6.3	-0.1	3.3	-1.9	-23.8	-3.1	5.3
O=C(NN1C(=O)/C(=C/c2cccc(O)c2)SC1=S)c1ccccc1O	7.8	7.3	0.2	0.8	6.1	-0.8	-3.2	0.8
CCn1c2ccc(OC)cc2c2nc3ccccc3nc21	1.2	1.7	0.0	0.7	nt	-11.9	-3.9	12.0
O=C(COc1ccccc1[N+](=O)[O-])Nc1cc(C(=O)O)cc(C(=O)O)c1	-24.9	3.5	0.0	0.1	-5.5	10.7	7.6	-2.2
CCc1ccc(Nc2nnc(SCC(=O)c3c(N)n(C4CC4)c(=O)[nH]c3=O)s2)cc1	nt	1.7	-0.3	6.6	0.0	nt	nt	7.6
CS(=O)(=O)N(CC(=O)O)c1cc(Cl)cc(Cl)c1	-4.3	1.9	-0.8	1.4	-4.6	-2.5	1.9	3.4
CCCCOC(=O)c1cccc(NC(=O)CCC(=O)O)c1	-5.2	-3.1	-1.4	6.6	-5.3	-7.3	1.5	-3.0
Cc1nnsc1C(=O)N1CCC(CO)(Cc2ccccc2Cl)CC1	-4.5	3.0	0.6	1.7	-6.1	-11.0	0.3	-0.8
C=C(Br)Cn1c(CC(C)C)nc2ccccc21	4.9	1.5	-0.5	1.3	4.5	0.8	-7.0	-5.3
c1ccc(CCc2nn3c(Cn4nnc5ccccc54)nnc3s2)cc1	-9.7	0.8	0.7	0.6	-9.6	1.4	7.4	-2.4
COC(=O)n1c(=O)oc2ccccc21	-5.4	-1.0	0.4	-7.8	-17.8	-2.9	4.0	nt
O=S(=O)(c1cccc(C(F)(F)F)c1)N1CCN(C(=S)NCc2ccco2)CC1	-7.4	2.0	0.5	-3.3	3.9	-2.5	-0.2	-7.1
O=C(NCc1cccnc1)C(=O)C1C(=O)Nc2ccccc21 (stereo unspecified)	3.9	4.7	0.5	-4.1	4.1	8.6	4.7	-15.2
Cc1cc(C)c2c(n1)sc1c(N3CCCCC3)ncnc12	12.3	-20.7	-0.5	2.8	17.1	-2.6	-0.3	7.8
CCOC(=O)c1oc2ccccc2c1CN1CCN(c2ccccc2)CC1	3.8	3.1	0.7	-0.1	12.2	-0.5	6.9	0.9
CCOc1ccc(NC(=S)NC23CN4CN(CN(C4)C2)C3)cc1	2.4	-1.5	-0.4	2.3	-2.9	-20.2	3.7	0.6
CCSc1sc(CC)cc1C=O	-12.9	3.5	0.4	4.3	1.2	-5.8	-0.6	8.1
Cc1cc(C)cc(N2C(=O)CC(n3nc(C)cc3C)C2=O)c1 (stereo unspecified)	-11.7	-0.7	0.7	2.2	5.6	-2.5	2.9	-1.8
CCOc1ccccc1OCC(=O)OC(C)C(=O)Nc1ncc(Cl)cc1Cl (stereo unspecified)	nt	4.3	-1.0	-4.4	-5.2	nt	nt	0.9
COc1ccc(CCNC(=O)C(=O)NCC2OCCN2S(=O)(=O)c2cccs2)cc1OC (stereo unspecified)	-11.6	-2.0	1.2	8.9	-1.5	9.0	-2.1	1.7
COc1ccc(NS(=O)(=O)c2ccc(NC(=O)c3ccc(N(C)S(C)(=O)=O)cc3)cc2)c(OC)c1	-5.5	nt	0.4	-2.5	-11.5	-6.9	-1.6	-3.3
COc1ccc(-c2cc3ncccc3cn2)cc1	nt	0.2	0.1	-6.6	-9.7	nt	nt	-4.6
FC(F)(F)c1ccc(N2CCN(c3cc(-c4ccccc4)nc4ncnn34)CC2)nc1	5.9	-24.9	-0.8	-3.3	20.7	11.3	-0.6	nt
CCSc1nnc(CNC(=O)C23CC4CC(CC(C4)C2)C3)n1C1CCCCC1	15.0	3.4	-0.5	0.7	-5.3	?	-2.9	-5.3
Cc1cccc(Oc2nc(-c3ccncc3)nc3ccccc23)c1	26.4	2.9	-0.4	8.0	5.9	-1.9	-0.5	nt
CSCCC(NC(=O)c1ccco1)C(=O)Nc1ccncc1 (stereo unspecified)	-3.6	-0.6	0.0	-4.0	0.8	-3.4	-1.9	-5.2
CC1(C(=O)Nc2cccc(C(F)(F)F)c2)CO1 (stereo unspecified)	-12.8	nt	0.4	0.5	nt	-0.5	1.1	-10.2
OCCN1CCN(c2ncnc3c2c(-c2ccccc2)cn3-c2ccc(F)cc2)CC1	21.5	0.7	?	-1.5	-0.8	-4.7	-6.3	-7.0
CCOC(=O)Nc1ccc2c(c1)N(C(=O)CCN1CCN(C)CC1)c1ccccc1S2	33.7	4.5	0.3	-3.6	-11.9	-4.8	1.9	nt
CCOCCCNS(=O)(=O)c1ccccc1	-12.4	3.1	-0.9	-2.7	2.5	-11.0	-1.9	-0.9
COc1ccccc1N1CCN(/N=C/C=C\c2ccco2)CC1	18.9	nt	-3.2	-11.0	-0.7	-20.9	-5.2	1.4
S=c1[nH]nc(-c2ccc(Cl)cc2Cl)n1-c1ccccc1	7.0	1.7	0.9	1.3	-6.3	-7.3	2.2	5.7
Cc1ccc(S(=O)(=O)N2CCOCC2)cc1C(=O)OCC(=O)Nc1ccc2[nH]c(=O)[nH]c2c1	-5.3	0.6	0.3	-5.8	2.8	-2.4	1.5	-6.6
CC(/C=N/NC(=O)c1cc(C2CC2)[nH]n1)=C\c1ccccc1	3.5	nt	-1.1	0.7	-0.7	43.7	2.2	7.8
CCOC(=O)c1cnc(SCc2ccccc2)nc1N	11.1	0.4	-0.6	0.4	-8.6	31.4	-2.4	0.0
O=C(CN1C(=O)C2C3C=CC(C3)C2C1=O)NCCc1ccccc1Cl (stereo unspecified)	0.5	4.9	0.5	-0.2	0.3	3.2	1.3	-0.7
CC(Nc1nc2ccccc2n2cnnc12)c1ccccc1 (stereo unspecified)	-4.4	1.4	0.6	1.3	-19.3	-0.4	1.8	21.8
COC(=O)c1cc(NC(=O)c2cccnc2)ccc1N1CCOCC1	-6.5	-221.3	1.4	-0.7	2.1	-4.3	-1.8	-1.7
O=C(OCC(=O)C12CC3CC(CC(C3)C1)C2)c1ccccn1	-5.3	2.5	0.9	-0.8	-0.5	1.6	3.2	-1.8
O=C(NCC1CCCO1)c1cc2ccccc2oc1=O (stereo unspecified)	-23.4	-25.9	-0.9	-1.4	-30.2	10.8	-0.2	-4.4
O=S(=O)(c1ccccc1F)N1CCN(CC(O)c2ccccc2)CC1 (stereo unspecified)	-9.6	-1.0	-0.3	-5.9	-15.1	6.1	1.0	-2.0
Cc1cccc(NC(=S)NCC(c2cccnc2)N(C)C)c1 (stereo unspecified)	-4.1	3.5	2.7	3.7	-2.1	-9.7	?	-6.0
O=S(=O)(Nc1cccnc1Cl)c1ccc(F)cc1	-11.4	3.7	0.2	-2.3	-0.7	-0.6	-3.7	-1.4
O=C(N/N=C/c1ccncc1)C1CC1(c1ccccc1)c1ccccc1 (stereo unspecified)	19.6	nt	-0.3	-1.2	-10.2	-16.9	0.0	-6.1
C/C(=N\Nc1nc2ccccc2s1)c1ccc(Br)s1	11.9	nt	0.4	-6.4	-1.2	-73.5	0.2	90.4*

Overlap with the part before: five entries, followed by the next part.
mol	T cruzi repl	UCH37 inh	Bfl-1 A1 inh	LANA-H2A inh	Beta2AR agonist	Calb FLC	RanGTP-Imp inh	Beta apoptosis
O=S(=O)(c1ccccc1F)N1CCN(CC(O)c2ccccc2)CC1 (stereo unspecified)	-9.6	-1.0	-0.3	-5.9	-15.1	6.1	1.0	-2.0
Cc1cccc(NC(=S)NCC(c2cccnc2)N(C)C)c1 (stereo unspecified)	-4.1	3.5	2.7	3.7	-2.1	-9.7	?	-6.0
O=S(=O)(Nc1cccnc1Cl)c1ccc(F)cc1	-11.4	3.7	0.2	-2.3	-0.7	-0.6	-3.7	-1.4
O=C(N/N=C/c1ccncc1)C1CC1(c1ccccc1)c1ccccc1 (stereo unspecified)	19.6	nt	-0.3	-1.2	-10.2	-16.9	0.0	-6.1
C/C(=N\Nc1nc2ccccc2s1)c1ccc(Br)s1	11.9	nt	0.4	-6.4	-1.2	-73.5	0.2	90.4*
N/C(=N\OS(=O)(=O)c1ccc(Br)cc1)c1ccncc1	-3.1	3.6	0.3	-2.4	2.0	-8.8	5.9	-3.4
CCCC(C)NC(=O)c1cc(Cl)ccc1OC (stereo unspecified)	-8.1	1.4	-0.2	3.3	-4.1	-10.8	4.7	4.6
Cc1ccc(C)c(S(=O)(=O)N2CCCC2CNC(=O)C(=O)NC2CCCC2)c1 (stereo unspecified)	6.8	0.3	-0.6	-0.1	60.6*	7.2	0.2	-3.2
O=C(COC(=O)COc1ccccc1[N+](=O)[O-])NCc1ccc2c(c1)OCO2	nt	4.2	1.0	-0.1	-2.6	nt	nt	2.1
O=c1c(Cl)c(NCCCO)cnn1-c1nc2ccccc2[nH]1	-4.8	-10.2	-6.6	1.6	19.8	77.8*	-2.0	nt
CN(CC(=O)Nc1ccc(F)c(F)c1F)C(=O)c1ccc(-n2cncn2)cc1	nt	0.4	-0.6	-18.4	-4.5	nt	nt	-1.3
COc1ccc(N2CCN(C3CC(=O)NC3=O)CC2)cc1 (stereo unspecified)	-6.6	5.5	0.8	-0.3	8.4	-11.0	-0.5	1.6
CC1=CC(C)(C)Nc2ccc(OC(=O)C(C)N3C(=O)c4ccccc4C3=O)cc21 (stereo unspecified)	-11.6	-1.1	0.7	-1.8	-7.7	59.5	2.4	-24.0
Cc1cc(C)n(-c2cc(C)c(C)cc2Br)n1	-21.1	4.4	0.1	-0.7	5.4	-34.6	-0.4	-1.6
CCOC(=O)Cc1nnc(NC(=O)CSc2ccccc2)s1	-6.0	2.1	-0.8	-1.2	20.5	-2.7	5.1	nt
O=C(NCCc1ccccn1)C1CCCN(S(=O)(=O)Cc2ccccc2)C1 (stereo unspecified)	5.7	-0.7	-1.2	0.8	9.1	-12.5	0.7	-2.4
